Screens as filed in PubChem BioAssay.
Beta cell apopt = beta cell apoptosis inhibition; INS-1E cytokine-induced death, ATP luminescence, 48 h; percent of positive-control rescue, neutral wells zero; protection from apoptosis, % (no concentration beside the values); 300,000 tested, 0.8% active;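 active = all replicates at 75% or more, or half of them and the mean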;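 note: 0% = cytokine-treated negative control wells and 100% = positive control rescue; higher means more ATP so stronger rescue from cytokine killing; wells of about 40 µL received 100 nL stock; the first replicate is given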
FGF22 binding = shifts melting point of recombinant human FGF22; Q9HCT0; recombinant FGF22 thermal shift, SYPRO orange fluorescence; percent of sucrose octasulfate shift, DMSO zero; calls only at 9.99 µM; 340,000 tested, 1.5% active; AID 651658;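 active = melting point raised past a set limit in the mean and every replicate; three in four hits are not shown here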
Target sequence (Q9HCT0 whole entry, looked up): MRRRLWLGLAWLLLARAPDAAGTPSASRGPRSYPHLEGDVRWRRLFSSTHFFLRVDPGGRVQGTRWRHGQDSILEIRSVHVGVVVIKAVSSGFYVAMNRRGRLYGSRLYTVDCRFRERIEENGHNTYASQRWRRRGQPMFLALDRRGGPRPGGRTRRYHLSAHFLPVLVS
UCH37 DUB inh = blocks the human deubiquitinase UCH37 | AID 588478 | 330,000 tested, 0.33% active | inhibition, % (concentration not given with the values) | purified proteasome/UCH37, Ub-AMC cleavage fluorescence | Q9Y5K5;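 active = mean of two replicates above 20%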;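 note: 0% = compound-free wells with enzyme and 100% = wells lacking proteasome; stock transfer was 100 nL into about 20 µL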
Target sequence (Q9Y5K5 whole entry, looked up): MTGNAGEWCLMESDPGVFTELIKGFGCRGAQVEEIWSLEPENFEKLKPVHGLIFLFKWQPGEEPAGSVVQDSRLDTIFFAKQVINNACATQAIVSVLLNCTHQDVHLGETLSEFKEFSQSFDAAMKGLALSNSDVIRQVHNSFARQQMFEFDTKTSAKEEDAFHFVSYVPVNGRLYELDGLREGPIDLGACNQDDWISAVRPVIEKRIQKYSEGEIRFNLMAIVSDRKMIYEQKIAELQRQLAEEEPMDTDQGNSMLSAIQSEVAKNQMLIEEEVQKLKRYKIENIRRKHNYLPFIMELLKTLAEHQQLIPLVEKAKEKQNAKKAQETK
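System: Proteasome-associated human UCH37 deubiquitinase; Input: 0.15 nM proteasome in added enzyme buffer; Also added: Ub-AMC substrate from 1 µM stock; Incubation: 30 min compound-proteasome preincubation then 25 min substrate reaction, room temperature; Detection: fluorescence, ex 355 nm, em 460 nm; Read-out: % inhibition of Ub-AMC cleavage fluorescence; Benchmarks: no-proteasome and no-compound wells.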
A1 inh = inhibitors of the anti-apoptotic protein A1, read as caspase activation; caspase activation, % (no concentration beside the values); 330,000 tested, 0.066% active; MEF A1-2A-BIM cells, Caspase-Glo 3/7 luminescence, 3 h; percent of clofoctol response, vehicle zero;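 active = over half of replicate activation scores above 10%, or exactly half above 10 with the replicate mean above 10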;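 note: wells of about 30 µL received 50 nL stock; many hits fall short of the cut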
Ecoli rRNA inh = selective bacterial rRNA inhibition in E. coli. E. coli WT GFP vs humanized-ribosome RFP mutants, fluorescence, 24 h; hits give low values; DMSO median 0, no signal -100. GFP signal change (wild-type ribosome), % (test concentration not listed). 350,000 tested, 1.6% active. AID 720706;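 active = significant combined selectivity score with lowered wild-type GFP, culture density cut under 30%, mutant RFP and density less affected; inactive = any of these conditions unmet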; note: one replicate is shown; some compounds called inactive have numbers as strong as hits
E coli growth = blocks Escherichia coli growth. OD600, 23 h; hits give low values. 330,000 tested, 0.21% active. OD600 absorbance (no concentration beside the values);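 active = OD600 absorbance below the run mean of sample wells minus 3.6 SD, in any replicate, cut at about 0.56 in these data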;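 note: stock transfer was 300 nL into about 60 µL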
T cruzi inh = blocks replication of Trypanosoma cruzi; T. cruzi beta-gal in NIH3T3, luminescence, 90 h; inhibition, % (test concentration not listed); 300,000 tested, 1.4% active; AID 1885;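 active = mean inhibition across valid replicates above about 55%, limit read from the data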;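 note: signal also drops with host cell toxicity which is not excluded here; 0% = plate median of DMSO wells and 100% = zero luminescence signal; higher percent means less beta-gal luminescence so fewer parasites; stock transfer was 50 nL into about 50 µL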
AF4-AF9 inh = inhibitors of human MLL-AF4/AF9 interaction; AID 651704; AlphaScreen, biotin-AF4 peptide binding to FLAG-AF9; P42568; 350,000 tested, 0.47% active; inhibition, % at 10 µM;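 active = every replicate reaching a set inhibition limit, whatever the replicate mean, cut at about 25% in these data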;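 note: 0% = plate neutral control median and 100% = total signal loss; the record names both 10 and 1 µM as test concentration; the first replicate is given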
Target sequence (P42568 whole entry, looked up): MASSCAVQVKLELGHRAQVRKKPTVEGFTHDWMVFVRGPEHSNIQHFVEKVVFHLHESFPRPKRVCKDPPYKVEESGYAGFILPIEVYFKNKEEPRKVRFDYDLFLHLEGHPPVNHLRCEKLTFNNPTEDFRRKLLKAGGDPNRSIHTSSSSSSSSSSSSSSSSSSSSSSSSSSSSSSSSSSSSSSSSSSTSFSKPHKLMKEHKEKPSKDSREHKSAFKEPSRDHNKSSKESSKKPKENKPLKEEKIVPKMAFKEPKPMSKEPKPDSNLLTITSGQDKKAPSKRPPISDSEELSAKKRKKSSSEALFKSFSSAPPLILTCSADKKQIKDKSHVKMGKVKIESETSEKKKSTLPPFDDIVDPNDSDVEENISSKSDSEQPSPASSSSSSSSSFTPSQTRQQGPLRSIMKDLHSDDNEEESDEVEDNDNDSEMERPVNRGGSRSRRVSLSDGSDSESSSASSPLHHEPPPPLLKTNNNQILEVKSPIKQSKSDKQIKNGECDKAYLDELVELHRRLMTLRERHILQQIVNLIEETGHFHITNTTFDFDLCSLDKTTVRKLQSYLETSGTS
Ecoli rRNA inh OD600 = recorded beside Ecoli rRNA inh, whose call it bears; OD600 change, %; measured here: OD600 growth;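 optical density of the mix in the first replicate; 0 = DMSO median and -100 = no signal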
Ecoli rRNA inh RFP = second read-out of Ecoli rRNA inh, no call of its own (marks repeat the call); RFP signal change, %; measured here: RFP humanized mutant strains;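 first replicate; 0 = DMSO median and -100 = no signal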
* marks the source's active call; other numbers are inactive results; i = inactive; · = no result given. Only part of the results is shown; rates above refer to the full screens.

The first 2 records as a preview:
SMILES,Beta cell apopt,FGF22 binding,UCH37 DUB inh,A1 inh,Ecoli rRNA inh,Ecoli rRNA inh OD600,Ecoli rRNA inh RFP,E coli growth,T cruzi inh,AF4-AF9 inh
Cc1c(C(=O)NCc2ccc3c(c2)OCO3)oc2ccc(S(=O)(=O)N3CCC(C)CC3)cc12,2,·,2.3,1.1,·,·,·,0.77,56*,·
CCOc1cc2[nH]c(=O)n(CCCCC(=O)NC3CCCCCC3)c(=O)c2cc1OCC,1,·,-7.6,0.9,·,·,·,0.71,16,·

The whole of this part, repeating the preview:
SMILES,Beta cell apopt,FGF22 binding,UCH37 DUB inh,A1 inh,Ecoli rRNA inh,Ecoli rRNA inh OD600,Ecoli rRNA inh RFP,E coli growth,T cruzi inh,AF4-AF9 inh
Cc1c(C(=O)NCc2ccc3c(c2)OCO3)oc2ccc(S(=O)(=O)N3CCC(C)CC3)cc12,2,·,2.3,1.1,·,·,·,0.77,56*,·
CCOc1cc2[nH]c(=O)n(CCCCC(=O)NC3CCCCCC3)c(=O)c2cc1OCC,1,·,-7.6,0.9,·,·,·,0.71,16,·
O=C(CCC(=O)NNC(=S)Nc1ccccc1)NCc1ccccc1,-3,·,1.0,0.0,·,·,·,0.69,-6,·
CN1CCN(S(=O)(=O)c2cccc(S(=O)(=O)c3cccc(S(=O)(=O)N4CCN(C)CC4)c3)c2)CC1,-3,·,-0.9,0.3,·,·,·,0.7,-4,·
COc1cccc(-c2nnc(SCC(=O)N3CCCC3=O)n2-c2ccccc2)c1,-9,i,0.8,0.2,2,1,2.1,0.67,-27,-33
NC(=S)N/N=C\c1c(OCc2ccccc2Cl)ccc2ccccc12,37,i,·,0.1,-8,18,-10,·,·,8.6
O=C(CCS(=O)(=O)c1cccs1)N1CCN(c2ccc(F)cc2)CC1,6,·,5.3,0.2,·,·,·,0.69,-18,·
CCOc1ccccc1C(=O)N1CCC(n2nnc3cc(C(F)(F)F)ccc32)CC1,6,·,0.7,0.3,·,·,·,0.71,8,·
COc1ccc2c(c1OC)C(=O)N(c1cccc(C)c1)C2,4,·,-0.3,-13,·,·,·,0.71,5,·
C=CC[C@@H](Cc1ccc(F)cc1)C(=O)OC[C@H]1CCCN1C(=O)[C@@H](CC=C)CC(=O)N[C@@H](CO)Cc1ccccc1,·,i,2.8,·,-30,-49,16,0.69,·,1.4
O=C(NCc1cccc(Br)c1)C1CC(c2ccc(C(F)(F)F)cc2)=NO1 (centres undefined),2,i,3.3,-0.3,-3,-5,-2.0,0.68,-23,-4.1
COc1ccc(CC(=O)N2CCC(n3nccc3NC(=O)C3CC3)CC2)cc1,1,i,1.4,-0.4,3,6,-1.4,0.68,1,-2.7
CN(Cc1ccccc1)C(=O)COC(=O)c1cncc(Br)c1,-2,i,1.6,0.8,9,7,-1.2,0.69,-10,-1.3
COc1cccc(CNc2ccc3[nH]c(=O)[nH]c3c2)c1OCc1ccccc1Cl,5,i,0.3,-0.5,-17,-12,0.2,0.69,-7,5.5
Cc1cccc(C)c1OCc1cc(C(=O)N2CCN(c3ccccn3)CC2)no1,-4,i,5.1,0.6,-31,-56,0.1,0.66,2,-5.8
COc1cccc(-c2nn(-c3ccc(F)cc3)cc2C(=O)NCC2CCCO2)c1 (centres undefined),-5,i,0.1,0.1,-13,-23,1.1,0.7,5,-6.4
CCCC(C)C(=O)Nc1ccc(S(=O)(=O)Nc2nccc(C)n2)cc1 (centres undefined),-8,i,5.5,0.3,20,17,1.1,0.64,2,-2.0
CCCc1nnc(NC(=O)CCC(=O)NC2CCCCCC2)s1,-7,i,-0.5,-0.4,5,12,0.0,0.66,3,1.5
CC(C)(C)NC(=O)C1CCN(C(=O)c2ccc(Br)cc2)CC1,5,·,0.2,0.2,·,·,·,0.64,1,·
COc1ccc(NC(=O)c2ccc(N3CCOCC3)nc2)cc1,-3,i,4.8,-0.3,2,2,-3.5,0.72,-12,0.5
CC(C)COC(=O)CNc1n[nH]c(=S)[nH]c1=O,-2,i,4.7,-0.6,8,14,-0.2,0.68,-15,9.0
O=C(CN1C(=O)NC(Cc2c[nH]c3ccccc23)C1=O)NCCc1ccc(F)cc1 (centres undefined),0,i,1.6,1.0,-8,-8,-6.3,0.67,-2,3.1
COc1ccc(OC)c(C(=O)NC(CC(N)=O)c2ccc(N3CCN(c4ccccn4)CC3)c([N+](=O)[O-])c2)c1 (centres undefined),-5,i,2.9,0.3,3,14,-6.3,0.66,2,7.0
Cc1nn(C(C)(C)C)c(C)c1/C=N/OC(=O)Nc1ccc(Cl)c(Cl)c1,0,i,·,1.2,-53,-74,-14,·,3,2.1
COc1ccc([N+](=O)[O-])cc1NCc1ccccc1,-21,i,3.7,-0.1,-17,-12,4.6,0.6,-5,10
COC(=O)C1=C(C(=O)OC)[C@@H]2N(C)c3ccccc3[C@@]23C[C@@H](C(=O)OC)N(C(C)=O)C3=N1,-1,i,0.7,-0.3,6,5,-4.3,·,-9,0.2
Cc1cc(/C=N/NC(=O)C(O)(c2ccccc2)c2ccccc2)c(C)n1-c1ccc(C(=O)O)cc1,-3,i,·,0.5,6,6,0.0,·,-3,3.3
CC(C)C[C@H](NC(=O)OC(C)(C)C)C(=O)NCC1CCC(C(=O)N[C@@H](Cc2ccccc2)C(=O)O)CC1 (some centres undefined),-1,i,1.3,-0.7,6,6,-0.6,0.65,-16,-0.2
CCn1c(SCC(=O)Nc2cc(C)on2)nc2c1c(=O)n(C)c(=O)n2C,-4,·,0.3,-0.8,·,·,·,0.71,-3,·
Cc1nc2ccc(-c3nc4cc(N)ccc4o3)cc2[nH]1,3,·,-113,-6.8,·,·,·,0.63,10,·
COC(=O)[C@H](CCSC)NC(=O)Cn1cnc2c(OCc3ccccc3)ncnc21,-8,i,-0.1,0.3,15,4,4.1,0.7,·,-2.2
CCOC(=O)N1CCC(NC(=O)c2cc(C(=O)NCc3cccc(Cl)c3)ccc2CO)CC1,6,·,5.4,0.2,·,·,·,0.69,-7,·
COc1ccc([C@H]2CC(=O)C=C(c3cccc(Cl)c3)C2)cc1OC,3,i,2.4,0.4,-20,-29,-7.5,·,·,11
CC1CCCCC1NC(=O)c1ccc(NC2=NC3CS(=O)(=O)CC3S2)cc1 (centres undefined),2,i,2.6,2.5,2,4,-2.2,0.71,0,-0.9
COc1cc2c(cc1OC)C(C)N(C(=O)Nc1ccc(F)cc1)CC2 (centres undefined),·,i,0.2,1.1,5,-7,2.4,0.66,4,-0.9
CN(C)c1ccc(C(CNC(=O)COc2ccc(Cl)cc2)N2CCCC2)cc1 (centres undefined),0,i,4.9,0.1,-5,-8,-1.8,0.71,6,26*
O=C(O)CSCNC(=O)CC12CC3CC(CC(C3)C1)C2,-2,·,0.5,1.1,·,·,·,0.73,-8,·
COc1ccc(C[C@H](C)NC[C@@H](O)c2ccc(O)c(NC=O)c2)cc1,·,i,0.7,-0.1,·,·,·,·,-2,0.6
O=C(COC(=O)c1ccc([N+](=O)[O-])cc1)NC12CC3CC(CC(C3)C1)C2,4,i,3.9,-0.7,4,12,-2.5,0.72,·,-16
Cc1nc(SCc2ccc(O)c([N+](=O)[O-])c2)c([N+](=O)[O-])[nH]1,1,i,20*,-0.4,6,3,1.2,0.67,8,6.4
O=C(NC(=S)NC1CCCCCCCCCCC1)c1cccnc1,-5,·,3.2,1.8,·,·,·,0.78,3,·
O=c1oc(CCCO)cc2ccc(/C=C/c3cccc([N+](=O)[O-])c3)cc12,4,i,0.8,-7.7,1,-4,-2.0,·,·,2.6
CCC(=O)Nc1ccc(C(=O)NNC(=O)C2CCCCC2)cc1,1,i,0.0,1.5,23,20,6.2,0.63,·,-1.1
CCN(CC)C(=S)SCC(=O)c1ccc(Br)cc1,5,i,3.0,0.0,-35,-37,-6.3,0.71,6,-2.7
CN(C)S(=O)(=O)c1cccc(NC(=O)c2sccc2-c2ccccc2)c1,-2,i,3.9,-0.1,-15,-23,-1.2,0.71,10,1.9
C=C(c1ccccc1Cl)[n+]1ccccc1,1,i,5.0,-0.3,9,11,-1.6,0.64,1,-5.1
Cc1cc2cc(CN(CCN3CCOCC3)C(=O)Nc3ccccc3F)c(=O)[nH]c2cc1C,0,·,-7.5,0.4,·,·,·,0.78,4,·
CC(=O)Nc1ccc(OCC(O)CN2CCN(c3ccc(C)c(Cl)c3)CC2)cc1 (centres undefined),12,·,0.1,0.4,·,·,·,0.65,8,·
CC(C)N(C(=O)[C@H]1CC(CC(=O)NCCN2CCOCC2)C(=O)N2CCc3c([nH]c4ccccc34)[C@]12C)C(C)C (some centres undefined),-4,i,4.2,-0.3,10,5,-0.9,0.69,·,1.4
Cc1c(C(=O)O)oc2ccc(S(=O)(=O)N(CC(C)C)CC(C)C)cc12,-3,·,6.7,0.3,·,·,·,0.79,·,·

Going on with the list.
SMILES,Beta cell apopt,FGF22 binding,UCH37 DUB inh,A1 inh,Ecoli rRNA inh,Ecoli rRNA inh OD600,Ecoli rRNA inh RFP,E coli growth,T cruzi inh,AF4-AF9 inh
CCOC(=O)N1CCN(Cc2oc(CO)cc(=O)c2O)CC1,-5,·,2.6,-0.1,·,·,·,0.74,1,·
CC(=O)C[C@H](O)CC(=O)[C@@H]1OC(=O)CCCCC/C=C/Cc2ccccc21,-3,i,0.9,2.3,-3,-3,1.6,·,·,·
O=C(NCc1cccnc1)c1ccc(-c2cc(Cl)ccc2Cl)o1,5,i,-1.0,-0.5,-29,-39,5.0,0.65,56*,-0.9
CC1(C)COC(c2ccccc2Cl)OC1,·,i,0.3,·,4,7,1.5,0.68,·,-1.5
Clc1ccc(-c2onc3c2CCCC3)cc1,-1,·,0.4,0.7,·,·,·,0.73,-1,·
COc1ccc2nc3cc(Cl)ccc3c(Nc3cc(C(C)C)c(O)cc3C)c2c1,114*,i,5.0,-0.6,-54,-67,-13,0.7,43,9.4
C=CCn1cc(C(=O)OCC)c(=O)c2cc(F)c(F)cc21,-5,i,7.2,0.6,9,6,0.7,0.68,-6,-10
O=c1[nH]c(CN2CCN(c3ccccc3O)CC2)nc2scc(-c3ccccc3Cl)c12,-6,i,1.6,0.8,-32,-27,14,0.7,49,2.4
CCOC(=O)C(CC)n1cnc2c(nnn2-c2ccc(F)cc2)c1=O (centres undefined),-3,i,2.5,0.6,-2,2,-1.5,0.63,-8,1.5
Cc1cc2c(cc1C)-c1nnc(-c3ccc4ccccc4n3)n1C(C)(C)C2,1,·,-2.1,-0.7,·,·,·,0.72,7,·
O=C(c1cccc(S(=O)(=O)N2CCc3ccccc32)c1)N1CCc2ccccc2C1,4,i,3.7,1.1,·,·,·,0.7,·,2.0
COCc1cc(C)nc(SCC(=O)NC2CCCCC2C)c1C#N (centres undefined),5,i,3.6,-0.2,6,14,-1.2,0.65,-9,1.3
Cc1cccc(NC(=S)NC2CC3C=CC2C3)c1 (centres undefined),-2,i,4.3,-0.5,-21*,-13*,0.2*,0.7,-19,-2.3
